Screening data deposited in PubChem by ICCB-Longwood Screening Facility, Harvard Medical School.
PV pol inh: poliovirus RdRp elongation inhibitors, primary screen, biochemical, fluorescence polarization, total intensity | Genome polyprotein (Poliovirus type 1 (strain Mahoney)), P03300 | poliovirus polymerase elongation; stronger effect = lower value | % elongation, % (compound at 16.7 µg/mL) | 150,000 tested, 0.66% active; in the data active means % elongation below about 90%; further: some results filed as inactive read as strong as hits
Target sequence (P03300 1749-2209 limits assumed): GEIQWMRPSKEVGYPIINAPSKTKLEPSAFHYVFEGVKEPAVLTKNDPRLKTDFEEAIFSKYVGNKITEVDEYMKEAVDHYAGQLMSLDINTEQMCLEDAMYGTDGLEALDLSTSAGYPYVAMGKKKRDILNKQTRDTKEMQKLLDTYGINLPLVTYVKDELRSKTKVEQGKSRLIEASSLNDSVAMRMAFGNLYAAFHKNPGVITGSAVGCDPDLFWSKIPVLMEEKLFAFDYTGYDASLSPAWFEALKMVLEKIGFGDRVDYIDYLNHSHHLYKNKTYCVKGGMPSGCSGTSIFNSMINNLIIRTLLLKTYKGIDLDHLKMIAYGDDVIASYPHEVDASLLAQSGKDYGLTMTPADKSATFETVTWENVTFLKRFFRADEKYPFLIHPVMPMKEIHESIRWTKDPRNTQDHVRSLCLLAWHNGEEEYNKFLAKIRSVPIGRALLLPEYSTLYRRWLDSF
PV pol inh intensity: recorded beside PV pol inh, whose call it bears; % elongation; measured here: total intensity read-out; formula for this scale not given here;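 total fluorescence in place of polarization; lower means less elongation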
Numbers without * were called inactive.

Value order – PV pol inh	PV pol inh intensity
COc1cc(Cl)c(C)cc1NC(=O)CNC(=O)Cn1ccc2ccccc2c1=O
→ 108	108
Cc1ccc(CNC(=O)CN2C(=O)CSc3ccc(S(=O)(=O)N4CCCC4)cc32)cc1
→ 117	115
COc1ccc(-c2noc(CNC(=O)COc3cccc(C)c3C)n2)cc1
→ 112	117
CC(=O)NCCNc1nc2c(S(=O)(=O)c3ccc(C)c(C)c3)nnn2c2ccc(Cl)cc12
→ 107	110
CC(C)c1ccc(N2C(=O)N(Cc3ccccc3Cl)c3ccccc3S2(=O)=O)cc1
→ 107	105
CC1CN(C(=O)N2CCC(C(=O)NCCC3=CCCCC3)CC2)c2ccccc2O1 (configuration not stated)
→ 108	105
Cc1cccc(-c2noc(-c3ccc(N4CCCC4)c([N+](=O)[O-])c3)n2)c1
→ 110	113
COc1cc(OC)c(NC(=O)C2CCN(C(=O)c3sc4nc[nH]c(=O)c4c3C)CC2)cc1Cl
→ 100	97
O=C(Cn1ncc2c3ccccc3n(Cc3ccc(Cl)cc3)c2c1=O)NC1CCCCCC1
→ 139	155
COc1ccc(OC2CCN(S(=O)(=O)c3cccc(F)c3)CC2)cc1
→ 101	103
Cc1cccc(N(C)c2nc3ccc(C)cc3n3cnnc23)c1
→ 104	112
Cc1ccc(N2CCN(Cc3nnc(-c4ccccc4F)o3)CC2)c(C)c1
→ 101	104
CCc1nn(CCCC(=O)NCc2ccc(OC(C)C)cc2)c(=O)c2cc3occc3n12
→ 111	108
COC(=O)c1ccc(NC(=O)Cn2c(=O)oc3ccccc32)cc1
→ 107	109
O=C(Nc1ccc(C(F)(F)F)cc1)C1(c2cccs2)CCOCC1
→ 107	113
Cc1cc(C)c2c(n1)SCCN2C(=O)Nc1ccc(C(=O)Nc2cc(Cl)ccc2C)cc1
→ 113	108
Cc1ccc(-n2c(=O)c3oc4ccccc4c3n(Cc3cccc(F)c3)c2=O)cc1C
→ 102	104
CC(=O)C1=C(c2cccc([N+](=O)[O-])c2)N(C(C)=O)n2c(nnc2-c2ccc(C)cc2)S1
→ 115	112
O=C(Nc1nonc1-c1ccc(Br)cc1)c1ccco1
→ 107	111
COc1c(Cl)cc(Cl)cc1C(=O)Nc1cccc(-c2nc3ccccc3o2)c1C
→ 105	108
COc1ccccc1/C=C(\C#N)c1nc(-c2cc3ccccc3oc2=O)cs1
→ 102	96
Cc1ccc(OCc2nnc(-c3ccccc3)o2)cc1
→ 107	105
Cc1ccc(OCC(=O)Nc2ccc(OCc3cc(=O)n4ccsc4n3)cc2)cc1
→ 111	113
COc1cc(OC)c(NC(=O)Cn2c(=O)cc(C(F)(F)F)c3c(C)nn(C)c32)cc1Cl
→ 111	110
O=C(NCCc1ccccc1)c1ccc(CSc2nc3ccncc3n2Cc2cccc(F)c2)cc1
→ 108	108
C=Cc1ccc(Cn2c(=O)cc(C)c3c(C)nn(-c4ccccc4)c32)cc1
→ 104	108
CCN(C(=O)CSc1nc(-c2ccc(C(C)C)cc2)no1)c1cccc(C)c1
→ 98	99
Oc1ccc(-c2nc3ccc(Cl)cn3c2Nc2ccc(Cl)cc2)cc1
→ 103	106
CCOc1ccc(CCNC(=O)CCCc2nnc3n(C)c(=O)c4sccc4n23)cc1OCC
→ 104	104
O=C(Nc1sc2c(c1C(=O)NCC1CCCO1)CCCC2)c1cc(=O)c2ccccc2o1 (configuration not stated)
→ 104	108
CCOc1ccc(-c2cc(C(=O)NC(C)c3ccccc3)c3ccccc3n2)cc1 (configuration not stated)
→ 110	100
Cc1ccccc1NC(=O)c1ccc(F)c(S(=O)(=O)N(C)Cc2ccccc2)c1
→ 107	108
Cc1ccc(-n2c(C)cc(C(=O)C(=O)Nc3ccccc3)c2C)c(C)c1
→ 111	113
COc1ccc(-c2nsc(NC(=O)c3oc4ccccc4c3C)n2)cc1
→ 111	103
Cc1ccc(CNC(=O)c2nnc(Cc3cccc(F)c3)o2)cc1
→ 104	105
Cc1ccc(N(CC(=O)N2CCN(c3cccc(Cl)c3)CC2)S(=O)(=O)c2c(C)noc2C)cc1
→ 110	108
CCOc1ccc(OCC(=O)Nc2c(C(=O)Nc3ccc(C)cc3)oc3ccccc23)cc1
→ 101	103
CCOc1ccc(CNS(=O)(=O)c2ccc(-c3cc(C(F)(F)F)on3)s2)cc1
→ 108	109
COc1ccc(Cl)cc1C(=O)Nc1nnc2n1CCS2
→ 105	112
COCCNC(=O)CN1C(=O)CCn2nc(-c3cn(C)c4ccccc34)cc21
→ 102	108
O=C(Nc1ccc(C(=O)OCc2cc(=O)n3c4c(sc3n2)CCCC4)cc1)c1ccc(Cl)cc1
→ 113	117
CCOc1ccc(NC(=O)N2CCN(c3ccc(Cl)c(Cl)c3)CC2)cc1
→ 117	113
N#Cc1ccccc1NC(=O)C(=O)NCCc1csc(-c2ccc(F)cc2)n1
→ 106	107
CCCN1CCN(c2nnc(-n3cccc3C(=O)Nc3ccccc3C(F)(F)F)s2)CC1
→ 112	101
Cc1nn(-c2ccc(F)cc2)c(-n2cccc2)c1C(=O)N1CCN(c2ccccc2)CC1
→ 107	110
Cc1cccc2c1-c1sc(C(=O)Nc3ccc(F)cc3F)cc1CO2
→ 104	107
O=C(NCC(c1cccs1)S(=O)(=O)c1cccs1)c1ccc(F)c(F)c1 (configuration not stated)
→ 107	105
CCc1ccccc1NC(=O)CSc1nccn1C
→ 101	105
Nc1c(C(=O)Nc2ccccc2Cl)nnn1Cc1cccc(Cl)c1
→ 108	108
CCC(=O)N1CCc2cc(Br)cc(S(=O)(=O)N3CCCC(C(=O)Nc4ccc(OC)cc4OC)C3)c21 (configuration not stated)
→ 106	105
CCOc1ccc(C(=O)Nc2ccc(-c3cc4ccccc4oc3=O)cc2)cc1Br
→ 103	108
CCOc1ccc2nc(NC(=O)c3nc(SC)ncc3Cl)sc2c1
→ 116	119
COc1ccc(-c2cc(C(=O)Nc3cc(C)ccc3O)no2)cc1OC
→ 107	109
Cc1cc(C(=O)O)c2c(=O)n(C)c(=O)n(C)c2n1
→ 106	107
Cc1ccc(NC(=O)Cn2c(-c3ccc4c(c3)OCO4)cn(-c3ccccc3)c2=O)cc1
→ 113	112
COc1ccc(NC(=O)c2c(NCc3cccs3)sc3c2CCC(C)C3)c(OC)c1 (configuration not stated)
→ 108	122
Cc1c(C(=O)Nc2ccc(F)c(F)c2)oc2ccc(S(=O)(=O)N3CCC4(CC3)OCCO4)cc12
→ 114	111
CCOc1ccc(CNC(=O)CCC(=O)N2CCSc3ccccc32)cc1
→ 104	105
Cc1cccc(N2CCN(C(=O)C3CCCN(S(=O)(=O)c4ccc5c(c4)oc(=O)n5C)C3)CC2)c1C (configuration not stated)
→ 107	112
Cc1cc(NC(=O)Nc2nnc(N3CCCCCC3)s2)ccc1Br
→ 111	115

Following part
Value order – PV pol inh	PV pol inh intensity
CCOc1ccc(CCNC(=O)c2cc3c(=O)[nH]c4ccc(C)cc4c3s2)cc1OCC
→ 110	108
COc1cccc(N2CCN(C(=O)C3CCN(S(=O)(=O)c4cccc5nonc45)CC3)CC2)c1
→ 110	106
Cc1ccc(-n2nc(C(=O)N3CCCCC3)c(=O)n(C)c2=O)cc1
→ 107	109
O=C(CN1C(=O)CC(c2ccccc2)Sc2ccccc21)Nc1cccc(Cl)c1 (configuration not stated)
→ 103	108
CCc1ccc(NC(=O)c2cnn(-c3c(C)cccc3C)c2C2CCNCC2)cc1
→ 102	85
COc1ccc(OC)c(NC(=O)C2CCCN(S(=O)(=O)c3ccc4[nH]c(=O)ccc4c3)C2)c1 (configuration not stated)
→ 121	115
Cc1c(Cl)cccc1NC(=O)c1ncn(-c2ccccc2)n1
→ 109	113
CCOC(=O)C1CCN(S(=O)(=O)c2ccc3c(c2)NC(=O)C(C)C(=O)N3)CC1 (configuration not stated)
→ 108	97
CCS(=O)(=O)N1CCc2cc(C(=O)Nc3cccc(Cl)c3C)ccc21
→ 107	108
Cc1cc(NS(=O)(=O)c2cn(C)c(C)n2)ccc1Br
→ 112	114
Cc1nn(-c2ccc(F)cc2)c(-n2cccc2)c1C(=O)NCCCN1CCN(c2cccc(Cl)c2)CC1
→ 97	104
O=C(c1cc(-c2cccc(Cl)c2)on1)N1CCN(c2ccccc2)CC1
→ 104	108
Cc1ccc(-c2cc(-c3coc4ccccc4c3=O)c3c(n2)-c2ccccc2OC3)cc1
→ 106	110
Cc1cc(C(F)F)n2nc(C(=O)Nc3cc(Cl)ccc3C)nc2n1
→ 107	111
CCC(=O)N1CCc2cc(Br)cc(S(=O)(=O)N3CCCC(C(=O)NCc4ccccc4)C3)c21 (configuration not stated)
→ 102	105
CCOC(=O)C1CCCN(S(=O)(=O)c2ccc3c(c2)CCCN3C(C)=O)C1 (configuration not stated)
→ 106	109
COc1ccc(C2CC(=O)c3cc(-c4nc(-c5cccc([N+](=O)[O-])c5)cs4)c(=O)n(-c4cccc(C)c4)c3C2)cc1 (configuration not stated)
→ 107	112
CCOc1ccc(C(=O)Nc2nnc(SCc3cc(=O)n4ccccc4n3)s2)cc1
→ 104	103
Cc1ccc(CNC(=O)c2cnc(N3CCCC3)nc2C)cc1
→ 104	108
N#Cc1c(C(F)(F)F)cc(-c2cccs2)nc1SCC(=O)Nc1cccc(C(F)(F)F)c1
→ 107	124
CNC(=O)COc1ccc(Nc2nnc(-c3ccc(C)c(S(=O)(=O)NC(C)(C)C)c3)c3ccccc23)cc1
→ 108	101
CCOc1ccc(-c2ccc(CO)o2)cc1N
→ 106	106
CCOc1ccccc1C1C(C(=O)Nc2ccccc2)=C(C)Nc2nc(SCC(=O)c3ccc(C)cc3)nn21 (configuration not stated)
→ 105	104
CCOc1ccc(NC(=O)c2c(NCc3cc(OC)c(OC)cc3OC)sc3c2CCCC3)cc1
→ 109	111
Cc1cc(N(C)Cc2ccccc2)n2nc(-c3ccc(C(C)(C)C)cc3)nc2n1
→ 106	112
CC(=O)c1cccc(N(C(=O)Cn2nnc3ccccc32)C(C(=O)NCc2ccccc2)c2ccc(F)cc2)c1 (configuration not stated)
→ 104	98
O=C(c1ccc2c(c1)N(Cc1ccc(F)cc1)C(=O)c1ccccc1S2(=O)=O)N1CCCC1
→ 105	106
CCOc1ccccc1NC(=O)CSc1nc(=O)[nH]c2c1CCCC2
→ 106	108
Cc1ccc(-n2ncc3c(N4CCC(C)CC4)ncnc32)cc1C
→ 110	117
Cc1cccc(NS(=O)(=O)c2ccc3c(c2)n(C)c(=O)n3C)c1C
→ 101	97
COc1ccc(CCCc2nnc(SCC(=O)Nc3cc(F)ccc3C)o2)cc1
→ 107	113
CSc1ccccc1NC(=O)CCS(=O)(=O)c1nc(-c2cccs2)cc(C(F)(F)F)n1
→ 109	109
CCOC(=O)c1cc2c(=O)n3ccccc3nc2n(CCCOC)c1=NC(=O)c1c(-c2ccccc2Cl)noc1C
→ 103	106
Cc1oc(-c2cccc(Cl)c2)nc1CN1CCCC(C(=O)NCc2ccc(F)cc2)C1 (configuration not stated)
→ 107	109
Clc1ccc(-c2noc(-c3cccnc3N3CCN(c4ccccc4)CC3)n2)cc1
→ 113	117
Cc1cccc(Cn2nnc3c(=O)[nH]c(C4CCCN(C(=O)c5ccccc5Cl)C4)nc32)c1 (configuration not stated)
→ 102	102
O=C(c1ccc2c(c1)OCCO2)N(Cc1cccnc1)c1nc2c(F)cc(F)cc2s1
→ 99	102
CCCCN(C)CCNC(=O)Cn1ncc2c3ccccc3n(CCC)c2c1=O
→ 99	96
COc1ccc(CNC(=O)CN2C(=O)CCCc3ccccc32)cc1
→ 103	110
Cc1ccc(NC(=O)c2cnn3c2NC(c2ccccc2)=CC3c2ccccc2)cc1 (configuration not stated)
→ 99	134
Cc1ccc(OCC(=O)Nc2c(C(=O)c3ccc(Cl)cc3)oc3ccccc23)cc1C
→ 106	104
CC(C)c1ccc(NC(c2nnc(-c3ccccc3)o2)c2ccc(F)cc2Cl)cc1 (configuration not stated)
→ 104	104
CCOC(=O)c1[nH]c(C)c(C(=O)NC(CC)Cc2ccccc2)c1C (configuration not stated)
→ 113	114
CC1CCCN(S(=O)(=O)c2cc3c4c(c2)CC(=O)N4CCC3)C1 (configuration not stated)
→ 105	113
COc1ccc(Cl)cc1NC(=O)CSc1nc2c(oc3ccccc32)c(=O)n1Cc1ccco1
→ 99	106
COc1cccc(-c2nc(-c3ccc(Br)o3)no2)c1
→ 101	85
O=C(Nc1cccc(OCc2cc(=O)n3c4c(sc3n2)CCCC4)c1)c1ccc(F)cc1
→ 103	104

In the list so far, 12 have a thiophene ring, fused or not.
Value order – PV pol inh	PV pol inh intensity
COc1cc(OC)c(NC(=O)C2CCN(C(=O)c3sc4nc[nH]c(=O)c4c3C)CC2)cc1Cl
→ 100	97
O=C(Nc1ccc(C(F)(F)F)cc1)C1(c2cccs2)CCOCC1
→ 107	113
CCOc1ccc(CCNC(=O)CCCc2nnc3n(C)c(=O)c4sccc4n23)cc1OCC
→ 104	104
O=C(Nc1sc2c(c1C(=O)NCC1CCCO1)CCCC2)c1cc(=O)c2ccccc2o1 (configuration not stated)
→ 104	108
CCOc1ccc(CNS(=O)(=O)c2ccc(-c3cc(C(F)(F)F)on3)s2)cc1
→ 108	109
Cc1cccc2c1-c1sc(C(=O)Nc3ccc(F)cc3F)cc1CO2
→ 104	107
O=C(NCC(c1cccs1)S(=O)(=O)c1cccs1)c1ccc(F)c(F)c1 (configuration not stated)
→ 107	105
COc1ccc(NC(=O)c2c(NCc3cccs3)sc3c2CCC(C)C3)c(OC)c1 (configuration not stated)
→ 108	122
CCOc1ccc(CCNC(=O)c2cc3c(=O)[nH]c4ccc(C)cc4c3s2)cc1OCC
→ 110	108
N#Cc1c(C(F)(F)F)cc(-c2cccs2)nc1SCC(=O)Nc1cccc(C(F)(F)F)c1
→ 107	124
CCOc1ccc(NC(=O)c2c(NCc3cc(OC)c(OC)cc3OC)sc3c2CCCC3)cc1
→ 109	111
CSc1ccccc1NC(=O)CCS(=O)(=O)c1nc(-c2cccs2)cc(C(F)(F)F)n1
→ 109	109

Not all compounds are listed, so the mix of outcomes need not match the whole.
